GLA inh pH 4.5 – alpha-galactosidase A (human) inhibition, pH 4.5; 230,000 tested, under 10 active; purified enzyme, 4-MU-alpha-Gal fluorescence, pH 4.5; P06280; activity change, negative = inhibition, % at 105 µM; inconclusive = small, poorly fitted or top-dose-only inhibition, or a rising curve; inactive = flat fitted curve, though single readings scatter; no compound was filed as active;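 further: 0% = full activity with enzyme and -100% = basal without enzyme; dose as in the result columns while the protocol names 77 µM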
Target sequence (P06280 whole entry, looked up): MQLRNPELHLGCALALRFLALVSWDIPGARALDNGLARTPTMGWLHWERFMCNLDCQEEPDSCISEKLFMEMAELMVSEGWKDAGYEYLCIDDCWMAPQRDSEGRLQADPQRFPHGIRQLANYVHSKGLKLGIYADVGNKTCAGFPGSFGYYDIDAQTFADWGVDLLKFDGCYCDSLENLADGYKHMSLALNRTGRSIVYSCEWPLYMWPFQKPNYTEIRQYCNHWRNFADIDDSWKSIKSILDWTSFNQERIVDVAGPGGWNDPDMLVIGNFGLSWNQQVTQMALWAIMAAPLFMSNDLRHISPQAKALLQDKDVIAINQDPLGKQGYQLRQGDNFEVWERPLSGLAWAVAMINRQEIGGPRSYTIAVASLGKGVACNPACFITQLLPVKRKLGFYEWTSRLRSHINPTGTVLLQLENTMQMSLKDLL
Rango-impB inh – inhibitors of Rango-importin beta complex formation; Rango CFP/YFP FRET sensor + importin beta, 45 min; Potency, µM (doses to about 92.2 µM), for inactives: top-dose inhibition of complex formation; 340,000 compounds, 0.031% hits; active = rising FRET ratio curve, often small or poorly fitted; inconclusive = mostly compound fluorescence or quenching in the first reads; inactive = flat curves in all reads;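 further: potency means the concentration at half of the fitted maximal effect; 0% = DMSO wells and 100% = buffer wells lacking importin beta; nearly all actives have a fitted effect of over 15% in size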
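FRET biosensor Rango (snurportin 1 IBB between N-terminal EYFP and C-terminal Cerulean), 50 nM in PBS/1 mM DTT/0.02% Tween-20/0.1% BSA, preincubated 5 min RT with compound; 0.125 microM importin beta added, 45 min RT, CFP/YFP FRET ratio read.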
miR-21 reporter – miR-21 reporter, rising signal. AID 2288. 340,000 tested, under 10 active. HeLa miR-21 FLuc reporter, luciferase, 48 h. Potency, µM (top dose mostly 38.3 µM), inactives show top-dose reporter change, positive = more light; active = well fitted rising curve with a large enough effect; inconclusive = small, poorly fitted or top-dose-only effect; inactive = no such curve, though single readings can be large or run the other way;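 further: % of control where 0% means no effect; miR-21 action dims this reporter so a rising signal means less miR-21 action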
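HeLa miR-21-FLuc reporter line, endogenous miR-21; 2000 cells/well in DMEM/10% FBS; compound titration up to ~40uM final, 48 h, 37 degree Celsius; luciferase detection reagent, 15 min lysis, CCD luminescence.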
Rango release inh – inhibitors of RanGTP-induced Rango-importin beta complex dissociation | O95149+P62826 | Biochemical FRET Rango-importin beta, RanGTP-induced dissociation | Potency, µM (highest dose often 46.1 µM), inactives show top-dose activity change, negative = inhibition | 340,000 compounds, 0.071% hits; active means falling FRET ratio curve, often poorly fitted, with flat reads before Ran was added; inconclusive means other falling curves, or compound fluorescence or quenching; inactive means flat or rising ratio curve;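 further: potency means the concentration at half of the fitted maximal effect; % of control where 0% means no effect; nearly all actives have a fitted effect of over 45% in size; -100% = wells without RanGTP and RCC1; the record marks most hits as doubtful in a second field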
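Rango/importin beta premix (0.1/0.25 uM final), PBS + 1 mM DTT + 0.02% Tween-20 + 0.1% BSA; cpd 5 min RT; FRET pre-read; + RanGTP-RCC1 (0.6 uM Ran, 2 mM GTP, 0.2 uM RCC1); 45 min RT; FRET post-read, ex 430, em 486/530 nm.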
Numbers without * were called inactive; ? = inconclusive; / = no result given; & = joins results of further samples. A portion of the library. The share of hits here may be higher or lower than overall.

SMILES | GLA inh pH 4.5 | Rango-impB inh | miR-21 reporter | Rango release inh
O=C(NCc1ccccc1Cl)C1CCC(CNc2c(N3CCOCC3)c(=O)c2=O)CC1 (configuration not stated) | 4.6 | 0.3% | -1.8% | 12.8%
CCNC(=O)CC1C(=O)N(c2ccc(C)cc2)C(=O)N1Cc1ccccn1 (configuration not stated) | -4.4 | -1.8% | 0.0% | 16.1%
Cc1ccc(CCNC(=O)C2CCCN(C(=O)c3cc4sccc4n3C)C2)cc1 (configuration not stated) | -4.6 | 3.3% | 9.0% | 6.0%
Cn1c(=O)c2c(SCC(=O)Nc3ccccc3F)nc(-c3ccccc3F)nc2n(C)c1=O | / | -0.3% | -0.1% | -0.4%
Cc1occc1C(=O)NCc1ccc2c(c1)OCO2 | -9.0 | -3.1% | -4.4% | -3.8%
CN(C)S(=O)(=O)c1ccc(N2CCCC2)c(C(=O)NC2(C)CCS(=O)(=O)C2)c1 (configuration not stated) | / | 0.2% | / | 10.9%
COc1ccccc1/C=C/C=N/NC(=O)c1ccc2nc[nH]c2c1 | 1.0 | / | 7.3% | /
CCCn1nnc(NC(=O)Cc2ccc(Cl)cc2)n1 | -0.9 | 3.7% | -17.0% | -1.4%
Cc1ccc(-c2cnc3c(Cl)c(C)nn3c2)cc1 | 6.0 | 3.1% | -31.8% | -23.3%
O=C(CSc1cccc[n+]1[O-])Nc1cc([N+](=O)[O-])ccc1Cl | -2.9 | 0.2% | 3.0% | 0.2%
COc1ccc(-n2nnnc2SCC(=O)Nc2ccccc2F)cc1 | / | ? | -9.5% | 2.4%
COc1ccc(N(Cc2cc(=O)[nH]c3ccccc23)C(=O)c2ccco2)cc1 | -10.0 | -1.2% | -1.0% | 14.5%
COc1ccc(Cl)cc1NC(=O)COC(=O)c1cc(C)oc1C | / | 5.6% | / | 14.9%
CCOC(=O)N/N=C\C=C\c1ccco1 | 6.9 | 5.7% | -17.5% | 11.4%
CCN(CC(=O)NCc1ccc(F)cc1)Cc1cc(=O)n2ccsc2n1 | 3.8 | 1.1% | -3.1% | -14.7%
Cc1ccc(CNC(=O)c2ccc(OCC(C)C)cc2)n1C | / | ? | -8.2% | -5.4%
C#CCOCCOCCOCCNc1nc(N2CCN(C(=O)[C@H](C(C)C)n3cc(CCO)nn3)CC2)nc(N2CCN(C(=O)[C@H](Cc3ccc(O)cc3)n3cc(CCO)nn3)CC2)n1 | / | 0.1% | / | 25.7%
Nn1c(COc2ccccc2)nc2ccccc2c1=O | 8.9 | 3.7% | -43.5% | 11.8%
Cc1cc(Cl)ccc1OCC(=O)Nc1cccc(S(=O)(=O)NC2=NCCCCC2)c1 | / | -4.8% | / | -1.0%
COc1cc(/C=N/NC(=O)c2[nH]nc3c2CCc2ccccc2-3)ccc1O | -4.5 | -2.9% | 19.6% | 11.3%
Cc1ccc(S(=O)(=O)NCC(=O)N(CC(=O)NCc2ccco2)Cc2cccs2)cc1 | 9.3 | -1.6% | 1.3% | 1.8%
CCCS(=O)(=O)N1CCC(C(=O)NCc2ccc(F)cc2)CC1 | 6.2 | 5.2% | -11.0% | -4.7%
CCc1n[nH]c(=S)n1/N=C/C(C)=C\c1ccccc1 | / | -2.2% | -13.3% | -4.7%
COc1ccc(NC(=S)Nc2cc(-c3ccccc3)[nH]n2)cc1Cl | -12.5 | 0.8% | 1.1% | 2.8%
O=C(O)C1C2CCC(C2)C1C(=O)Nc1ccccc1 (configuration not stated) | / | -0.6% | / | -3.8%
COc1cc(OC)cc(C(=O)NCC(=O)OCC(=O)NC(C)CCc2ccccc2)c1 (configuration not stated) | / | -1.6% | / | -3.5%
O=C(O)c1cc(NC(=O)C2CCCO2)cc(C(=O)O)c1 (configuration not stated) | / | -1.2% | 4.5% | 19.3%
CC(Oc1ccccc1)c1ccn[nH]1 (configuration not stated) | 4.7 | -2.9% | -0.6% | 5.0%
O=C(Nc1ccc(-c2csc(-c3ccccc3)n2)cc1)c1ccccc1Cl | 0.6 | -3.4% | -8.1% | -2.6%
Cc1cc(C)cc(NC(=O)C2CCCN(S(=O)(=O)c3cnc[nH]3)C2)c1 (configuration not stated) | 8.8 | -3.0% | 0.2% | ?
CCOC(=O)N1CCC(NC(=O)CS(=O)(=O)Cc2nc(-c3ccccc3C)oc2C)CC1 | 4.1 | -1.5% | -2.8% | -9.7%
Cc1nc2ccccc2c(=O)n1CCCO | -1.2 | -3.9% | -4.8% | -18.8%
CCC(C)Cn1c(C)nc2ccccc21 (configuration not stated) | 1.2 | -0.5% | -2.6% | 32.6%
CCN1C[C@@H]2[C@@H]3C(=O)N(Cc4ccccc4)C(=O)[C@@H]3[C@](CC)(C(=O)OC)N2C1=NCc1ccccc1 | / | 0.7% | / | -15.7%
Cc1ccc(S(=O)(=O)Nc2ccc(NC(=O)c3c(F)c(F)c(F)c(F)c3F)cc2)cc1 | -6.1 | -0.2% | 27.3% | 15.2%
CC12CCC(C(=O)Nc3ccccc3-n3cccc3)(CC1=O)C2(C)C (configuration not stated) | -9.1 | -0.4% | -7.3% | -26.7%
CN1CCC(N(C)C(=O)c2ccc(Cl)c(S(=O)(=O)Nc3cc(Cl)ccc3Cl)c2)CC1 | / | 3.4% | / | 4.7%
COc1ccc2nc(NC(=O)C3CCN(S(=O)(=O)c4cccs4)CC3)sc2c1 | -3.0 | 0.9% | ? | 6.7%
Nc1c(N2CCOCC2)cc(Cl)c2nonc12 | -1.2 | -1.3% | -29.7% | -19.9%
O=[N+]([O-])c1ccc(N2CCN(c3ccccc3O)CC2)c(Cl)c1 | 6.0 | -3.3% | -15.9% | -3.9%
CC(Sc1ccc(Cl)cc1)C(=O)NNC(=O)c1ccccc1O (configuration not stated) | / | 3.0% | 14.5% | 4.6%
CC(C)N(Cc1nc2ccccc2[nH]1)C(C)C | -1.8 | -0.3% | -1.3% | 15.0%
O=C(NCc1cccnc1)C1CCN(S(=O)(=O)N2CCOCC2)CC1 | -16.9 | 0.0% | -2.9% | 1.0%
COc1ccc(/C(C)=N/OCC(=O)Nc2nc3ccccc3s2)cc1 | 10.2 | 2.0% | -18.9% | 0.0%
c1ccc2c(c1)OCC(c1csc3ncnc(N4CCOCC4)c13)O2 (configuration not stated) | -6.8 | -2.2% | -8.3% | 10.2%
C=C(C)C1CC=C(C)/C(=N/NC(=O)CCC(=O)Nc2ccccc2Cl)C1 (configuration not stated) | / | 1.5% | 8.5% | -1.9%
CCOC(=O)CC(=O)Nc1ccn[nH]1 | 4.3 | -0.2% | -1.5% | 14.4%
O=C(c1cn[nH]c1)N1CCc2c([nH]c3ccccc23)C1c1c(F)cccc1Cl (configuration not stated) | 4.7 | -4.3% | 0.0% | -19.6%
CCOC(=O)C1C(=O)Oc2ccc3ccccc3c2C1C1CCOC1=O (configuration not stated) | -0.2 | -3.4% | 4.0% | 7.1%
CCOC(=O)c1[nH]c(CN2CCN(c3ccc(OC)cc3)CC2)c(C(=O)OCC)c1C | / | -4.0% | -0.7% | 1.3%
Cc1nn(-c2ccccc2)c(Cl)c1C(=O)OCC(=O)NCCc1ccc(S(N)(=O)=O)cc1 | / | 3.2% | / | 3.0%
O=C(NNC(=O)c1ccc(Br)cc1)c1ccncc1 | / | -1.4% | -7.8% | -4.4%
COC(=O)c1cc2sccc2n1Cc1nc(-c2cccc(Cl)c2)oc1C | -5.3 | -1.1% | -0.6%&-0.8% | -6.5%
Cc1ccc(S(=O)(=O)N(C)Cc2ccc(C(=O)N/N=C/c3ccc(OC(F)F)cc3)cc2)cc1 | 3.4 | 4.7% | -0.5% | -0.1%
CN(CCC1CCOCC1)C(=O)C1CCC(=O)N(CCc2cccc(F)c2)C1 (configuration not stated) | / | -3.2% | -3.4% | -8.4%
O=C(NC1CCCC1)C(c1ccsc1)N(C(=O)Cc1cccs1)c1ccc(F)cc1 (configuration not stated) | 2.5 | 2.5% | -1.2% | -0.5%
NNc1nc2ccccc2c(=O)n1Cc1ccccc1 | / | 0.2% | -31.8% | 5.0%
CCOc1cc2c(Cl)ncnc2c(OCC)c1OCC | 0.3 | -2.7% | 8.6% | 3.7%
O=C(NC1CCc2ccccc21)c1cc(COc2ccc(F)cc2Cl)on1 (configuration not stated) | 3.8 | 3.2% | -4.1% | -6.5%
OCCNc1nc2ccccc2[nH]1 | 1.3 | 0.2% | -0.4% | -1.7%

Record cards, from the list above. Values in the order: GLA inh pH 4.5, Rango-impB inh, miR-21 reporter, Rango release inh
Shown for Cc1ccc(S(=O)(=O)NCC(=O)N(CC(=O)NCc2ccco2)Cc2cccs2)cc1 : 9.3, -1.6%, 1.3%, 1.8%
Shown for CN(CCC1CCOCC1)C(=O)C1CCC(=O)N(CCc2cccc(F)c2)C1 (configuration not stated) : /, -3.2%, -3.4%, -8.4%

The listing continues:
SMILES | GLA inh pH 4.5 | Rango-impB inh | miR-21 reporter | Rango release inh
CCC1CCCCN1C(=O)CSc1nc2ccsc2c(=O)n1Cc1ccccc1 (configuration not stated) | 14.1 | -4.3% | 5.4% | -13.5%
CCOc1ccc(S(=O)(=O)Nc2ccc(C(=O)NCCCN3CCCC3=O)cc2)cc1 | / | 3.1% | / | -0.8%
Oc1c(C(c2ccccc2)N2CCOCC2)ccc2ccccc12 (configuration not stated) | / | 1.2% | / | -13.9%
COc1ccc(C(=O)NC2CCCc3ccccc32)cc1 (configuration not stated) | / | -0.6% | -12.6% | -14.4%
CSCC[C@H](NC(=O)Nc1ccc(S(N)(=O)=O)cc1)C(=O)O | -1.4 | -1.7% | 0.4% | -19.4%
CCOC(=O)NCCc1ccc(OC)cc1 | -2.2 | 1.9% | -8.7% | -4.0%
CN(CC(=O)Nc1ccc(Cl)c(C(F)(F)F)c1)C(=O)Cn1cc([N+](=O)[O-])ccc1=O | / | -1.2% | / | -14.2%
C(=Cc1c[nH]c2ccccc12)c1ccc2ccccc2n1 | / | ? | / | ?
Cc1c(NS(=O)(=O)c2ccc(Cl)c(C(=O)OC(C)C(=O)N3CCOCC3)c2)c(=O)n(-c2ccccc2)n1C (configuration not stated) | 3.5 | 0.7% | -2.2% | 5.4%
CCOC(=O)c1oc2ccccc2c1NC(=O)Cc1cccs1 | -10.4 | -2.4% | -11.5% | 0.4%
CCC(=O)NCC(c1cccs1)S(=O)(=O)c1ccc(C)cc1 (configuration not stated) | / | 3.2% | 5.7% | 4.1%
O=C(c1cccc(Cl)c1)C1CCCN(C(=O)c2ccoc2)C1 (configuration not stated) | 1.2 | 0.8% | -1.7% | -2.8%
O=C(CCCN1C(=O)C(c2ccccc2)Oc2cccnc21)NCc1ccccc1F (configuration not stated) | / | 0.7% | -6.9% | ?
Cc1c(Cc2ccccc2)sc(/N=C/c2ccc3ccccc3c2)c1C(N)=O | 8.2 | ? | -2.1% | -13.4%
c1ccc(-c2noc(CN3CCN(C(c4ccccc4)c4ccccc4)CC3)n2)cc1 | 5.0 | ? | -0.6% | -0.9%
CCN(CC(=O)Nc1c(F)cccc1F)C(=O)Cc1ccccc1 | -0.4 | -0.7% | -0.4% | 50.1%
O=C(c1ccc2c(c1)N(Cc1ccc(F)cc1)C(=O)CS2)N1CCOCC1 | -1.5 | 0.0% | 2.3% | 0.2%
Cc1ccc(NC(=O)CC2Oc3ccc(C)cc3NC2=O)cc1 (configuration not stated) | -5.8 | 2.1% | -11.8% | 8.3%
C=CCn1cnc2scc(-c3ccc(OC)cc3)c2c1=O | / | 3.0% | -7.4% | -18.2%

Six of the entries above in order of the miR-21 reporter value, ascending:
| structure | miR-21 reporter |
| --- | --- |
| O=C(Nc1ccc(-c2csc(-c3ccccc3)n2)cc1)c1ccccc1Cl | -8.1% |
| O=C(CCCN1C(=O)C(c2ccccc2)Oc2cccnc21)NCc1ccccc1F (configuration not stated) | -6.9% |
| CCOC(=O)CC(=O)Nc1ccn[nH]1 | -1.5% |
| c1ccc(-c2noc(CN3CCN(C(c4ccccc4)c4ccccc4)CC3)n2)cc1 | -0.6% |
| COc1ccccc1/C=C/C=N/NC(=O)c1ccc2nc[nH]c2c1 | 7.3% |
| COc1cc(/C=N/NC(=O)c2[nH]nc3c2CCc2ccccc2-3)ccc1O | 19.6% |

Screening results: PubChem BioAssay, National Center for Advancing Translational Sciences (NCATS)
